Screening results as filed in PubChem BioAssay.
Vif A3G: HIV-1 Vif–A3G interaction blockers – biochemical, TR-FRET, GST-Vif 1-94, biotin-A3G peptide, dose response retest, primary screen (AID 1117319). TR-FRET GST-Vif / biotin-A3G peptide binding; higher % means a stronger effect; test concentration not given here; strong numbers were not always called active. one-dose inhibition, %; IC50 in µM for titrated hits. 260,000 tested, 0.57% active;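 active = above the screen mean plus three standard deviations and confirmed in dose response; inconclusive = results disagree or hit not tested in dose response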;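 note: Vif residues 1-94 fused to GST binding biotinylated APOBEC3G peptide 110-148; 0% = full assay without inhibitor and 100% = GST in place of GST-Vif; retest series ran down from 100 µM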
FGF22 binding: FGF22 (human) thermal shift binding. recombinant FGF22 thermal shift, SYPRO orange fluorescence; percent of sucrose octasulfate shift, DMSO zero. calls only at 9.99 µM. 340,000 tested, 1.5% active. AID 651658;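 active = melting point raised past a set limit in the mean and every replicate; inconclusive = no clear call; three in four hits are not shown here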
Target sequence (Q9HCT0 whole entry, looked up): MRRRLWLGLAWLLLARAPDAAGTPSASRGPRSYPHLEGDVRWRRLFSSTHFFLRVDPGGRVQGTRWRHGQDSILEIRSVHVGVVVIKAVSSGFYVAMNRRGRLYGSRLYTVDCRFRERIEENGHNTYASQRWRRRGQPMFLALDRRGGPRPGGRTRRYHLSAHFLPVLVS
ALR inh: inhibitors of human sulfhydryl oxidase ALR | P55789 | purified ALR, DTT oxidation, H2O2 HRP-luminol luminescence | inhibition, % (concentration not given with the values) | 290,000 tested, 3.8% active;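 active = mean and each replicate at 75% or more; inconclusive = only one of the two met; inactive = neither met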;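 note: stock transfer was 7.5 nL into about 7.5 µL; 0% = neutral wells and 100% = wells with inactivated enzyme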
Target sequence (P55789 whole entry, looked up): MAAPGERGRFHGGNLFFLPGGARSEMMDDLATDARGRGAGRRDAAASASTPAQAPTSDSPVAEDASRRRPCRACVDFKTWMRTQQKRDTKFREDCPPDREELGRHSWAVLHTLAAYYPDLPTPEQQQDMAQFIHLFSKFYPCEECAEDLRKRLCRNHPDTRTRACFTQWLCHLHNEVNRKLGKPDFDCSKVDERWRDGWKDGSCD
MLL AF4-AF9 inh: MLL-AF4/AF9 protein interaction inhibition; P42568; AlphaScreen, biotin-AF4 peptide binding to FLAG-AF9; inhibition, % at 10 µM; 350,000 tested, 0.47% active;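 active = every replicate reaching a set inhibition limit, whatever the replicate mean, cut at about 25% in these data; inconclusive = mean inhibition reaches that limit but some replicates miss it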;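 note: 0% = plate neutral control median and 100% = total signal loss; the record names both 10 and 1 µM as test concentration; the first replicate is given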
Ecoli growth: E. coli growth inhibition; Escherichia coli growth, OD600, 23 h; stronger effect = lower value; OD600 absorbance (concentration not given with the values); 330,000 tested, 0.21% active; AID 1053175;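 active = OD600 absorbance below the run mean of sample wells minus 3.6 SD, in any replicate, cut at about 0.56 in these data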;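 note: stock transfer was 300 nL into about 60 µL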
HNF4A DNA FP: change in binding of human HNF4 alpha to DNA; P41235; HNF4a-FITC DNA binding, fluorescence polarization, 1 h; 360,000 tested, 0.3% active; activity change, % at 10 µM; in the data active = activity change above about 30%, passing the limit was not always enough;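 note: controls were the assay level and a saturating level of protein; the project sought stronger binding though the title names inhibitors; some compounds called inactive have numbers as strong as hits; positive values seem to mean higher polarization but the record does not say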
Target sequence (P41235 whole entry, looked up): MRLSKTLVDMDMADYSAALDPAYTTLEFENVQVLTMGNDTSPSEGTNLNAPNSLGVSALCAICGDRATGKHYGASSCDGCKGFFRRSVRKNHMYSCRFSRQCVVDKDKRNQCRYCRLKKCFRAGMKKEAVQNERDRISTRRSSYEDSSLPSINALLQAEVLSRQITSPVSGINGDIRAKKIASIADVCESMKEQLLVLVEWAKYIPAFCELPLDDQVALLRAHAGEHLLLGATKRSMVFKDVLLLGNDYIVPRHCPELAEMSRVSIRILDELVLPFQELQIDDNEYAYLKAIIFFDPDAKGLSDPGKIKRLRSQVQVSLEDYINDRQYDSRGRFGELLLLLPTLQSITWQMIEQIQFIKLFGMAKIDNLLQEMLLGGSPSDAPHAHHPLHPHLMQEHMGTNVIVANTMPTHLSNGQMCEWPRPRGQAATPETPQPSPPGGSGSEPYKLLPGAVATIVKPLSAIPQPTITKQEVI
Ecoli rRNA inh: selective bacterial rRNA inhibition in E. coli; GFP signal change (wild-type ribosome), % (no concentration beside the values); 350,000 tested, 1.6% active; E. coli WT GFP vs humanized-ribosome RFP mutants, fluorescence, 24 h; stronger effect = lower value; DMSO median 0, no signal -100; AID 720706;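 active = significant combined selectivity score with lowered wild-type GFP, culture density cut under 30%, mutant RFP and density less affected; inactive = any of these conditions unmet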; note: one replicate is shown; some compounds called inactive have numbers as strong as hits
Ecoli rRNA inh OD600: recorded beside Ecoli rRNA inh, whose call it bears; OD600 change, %; measured here: OD600 growth;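 optical density of the mix in the first replicate; 0 = DMSO median and -100 = no signal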
Ecoli rRNA inh RFP: further read-out of Ecoli rRNA inh, marked with its call; RFP signal change, %; measured here: RFP humanized mutant strains;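 first replicate; 0 = DMSO median and -100 = no signal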
Starred values were filed as active, the others as inactive; i = inactive; u = inconclusive; x = no result given; + = active, no number; & = joins results of further samples. Some of the compounds tested; the hit share may differ from the screen's.

SMILES	Vif A3G	FGF22 binding	ALR inh	MLL AF4-AF9 inh	Ecoli growth	HNF4A DNA FP	Ecoli rRNA inh	Ecoli rRNA inh OD600	Ecoli rRNA inh RFP
O=C(NCc1ccccc1C(F)(F)F)C12CN(Cc3ccccc3)CC1C(c1ccc([N+](=O)[O-])cc1)=NO2 (stereo not drawn)	4%	i	x	4.4	0.68	-6.1	-3	1	-7.1
Cn1nc(-c2ccccc2)cc1NC(=O)Nc1ccc(C(C)(C)C)cc1	x	i	-23	-2.3	0.67	3.6	-33	-59	11
C[C@@H]1CN([C@@H](C)CO)C(=O)c2cc(C3=CCCCC3)cnc2O[C@H]1CN(C)C(=O)c1ccccc1	x	i	x	-1.0	x	x	-2	-6	-2.5
O=C(O)c1ccccc1N=N/C(=N/Nc1cc(S(=O)(=O)O)ccc1O)c1ccccc1	u	x	x	14	x	-2.8	12	14	0.4
O=C(N/N=C\c1ccc(-c2ccc(Cl)c(Cl)c2)o1)C(=O)N1CCCC1	6%	x	4	x	x	-0.9	x	x	x
CCCCN(C)C1CCN(C(=S)Nc2ccc(OC)cc2)CC1	-8%	i	-3	-8.5	0.69	-3.0	3	-6	-2.7
CCCn1cccc(C(=O)Nc2ccc(OC)cc2)c1=O	-1%	i	-6	-1.0	0.67	-0.1	-2	3	-1.7
CCN(CC)CCNC(=O)Cn1nc(Cc2cccnc2)c2ccccc2c1=O	0%	i	-1	7.4	0.72	-0.9	x	x	x
CCOc1ccc2oc(C(=O)NCC(C)(C)CN(C)C)c(C)c2c1	u	i	x	-7.2	0.68	-1.6	8	1	-3.3
O=C(OCC(=O)N1CCOCC1)c1ccc(Cl)c(S(=O)(=O)N2CCc3ccccc32)c1	-12%	i	-2	1.4	0.7	3.1	-15	-35	-3.4
C[C@@H]1ON(C)[C@H]2C[C@H]3c4[nH]c5ccccc5c4CCN3C(=O)[C@@H]12	-3%	i	x	3.0	x	-3.0	4	5	11
Cn1c(=O)c2c(nc(OCCc3ccccc3)n2C)n(C)c1=O	24%	i	1	-1.9	0.64	-2.7	3	20	3.2
CC(C)(C)[C@H]1C=C(C(=O)N2CCOCC2)O[C@@H](OCCCCO)C1	1%	i	x	-3.1&-0.5	x	0.1	13	9	10
Cc1ccc(CNC(=O)Cn2cccc2C(=O)c2ccccc2)cc1	7%	x	-8	x	0.69	3.7	x	x	x
COc1ccc(CN(Cc2ccc(OC)cc2)S(=O)(=O)c2ccc(-n3cnnn3)c(C)c2)cc1	29%	x	-7	x	0.68	1.5	x	x	x
CO[C@@H]1CN(C)C(=O)c2cc(NC(=O)C3CC3)ccc2OC[C@H](C)N(CCC(F)(F)F)C[C@@H]1C	x	i	x	-1.9	x	x	-3	2	0.8
NC(=O)c1cc(-c2csc(-c3cccnc3)n2)ccc1O	x	i	51	-4.4	0.65	2.4	-4	-5	3.3
C[C@@H]1CN([C@@H](C)CO)C(=O)c2cc(NC(=O)Nc3ccc4c(c3)OCO4)ccc2O[C@@H](C)CCCCO[C@H]1CN(C)CC1CCCCC1	x	+	x	-13	x	x	-1	-19	19
COc1ccc2c(c1)[C@H]1[C@H](CO2)[C@H](c2ccccc2)[C@@]2(C)C(=O)N[C@H](C)C(=O)N12	x	i	x	-0.6	x	1.4	-9	10	0.8
COCC(=O)N1C[C@H](C)[C@@H](OC)CN(C)C(=O)c2ccc(NC(=O)C3CCC3)cc2OC[C@H]1C	x	i	x	-3.6	x	x	2	5	-1.8
O=C(Nc1ccc(S(=O)(=O)Nc2ccccc2)cc1)C1CC1	-6%	i	-9	-1.4	0.73	1.9	-1	-4	0.7
COc1ccc2c3c(n(C)c2c1)[C@@H](CO)N(C(=O)c1ccncc1)CC31CCN(S(C)(=O)=O)CC1	x	i	x	-1.8	x	x	1	-2	-5.1
Cc1onc(-c2c(Cl)cccc2Cl)c1C(=O)NC(=S)Nc1sc2c(c1C(N)=O)CCC(C)C2 (stereo not drawn)	x	i	x	3.0	x	0.7	9	7	-3.3
Cc1ccc(NC(=O)COC(=O)/C=C/c2ccccc2)cc1S(=O)(=O)N1CCOCC1	-5%	i	-2	-1.0	0.7	1.9	-3	10	-1.9
Cc1csc2c(N3CCN(C(=O)c4ccc(C(C)(C)C)cc4)CC3)ncnc12	5%	x	-23	0.3	0.68	7.4	-43	-73	-8.0
CC(C)NC(=O)Nc1ccc2c(c1)C(=O)N([C@H](C)CO)C[C@@H](C)[C@@H](CN(C)Cc1ccc(C(=O)Nc3ccccc3N)cc1)O2	x	i	x	0.7	x	x	2	-1	0.1
O=C1CCCCC1C(=O)c1cn(-c2ccc(Cl)c(Cl)c2)nn1 (stereo not drawn)	-8%	i	-1	1.5	0.74	0.1	2	4	0.0
O=C(NCc1cccnc1)C1CCN(S(=O)(=O)c2cccnc2)CC1	-1%	x	0	x	0.77	3.3	x	x	x
CC(C)C(c1nnnn1Cc1ccco1)N1CCN(c2nc3ccccc3s2)CC1 (stereo not drawn)	21%	x	-3	x	0.71	-2.6	x	x	x
Cc1cc(O)ccc1-c1cc(C(=O)NCc2cc(C(F)(F)F)cc(C(F)(F)F)c2)[nH]n1	x	i	x	-3.0	x	1.1	-8	-42	2.0
Cc1cccc(C)c1NC(=O)C(c1ccccc1)n1c(=O)c(-c2ccco2)nc2ccccc21 (stereo not drawn)	x	i	x	3.4	x	22	3	6	-0.5
NCC1CCN(c2nc3ccccc3c3c2CCCC3)CC1	x	i	x	5.0	x	1.4	-26	-30	0.7
Cc1ccc(Cl)cc1N(C)C(=O)Cn1ncc2c([nH]c3ccccc32)c1=O	x	i	1	-3.5	0.71	1.0	14	15	1.0
Cc1c(NC(=O)CSc2nc3c(cnn3-c3ccccc3)c(=O)[nH]2)c(=O)n(-c2ccccc2)n1C	-4%	i	4	0.9	0.69	-3.7	24	12	-1.5
Cc1ccc(S(=O)(=O)N(C)C[C@H]2Oc3ccc(NS(=O)(=O)c4c(C)noc4C)cc3CC(=O)N([C@H](C)CO)C[C@H]2C)cc1	x	i	x	-1.4	x	x	-3	-6	2.2
COc1ccc(NS(=O)(=O)c2ccc(C(=O)N(C)Cc3cccs3)cc2)cc1	7%	i	x	u	0.65	2.4	-1	-15	4.0
CCN1C(=O)[C@H]2[C@@H](c3ccc(C)cc3)N[C@]3(CCCN(Cc4ccc(C)cc4)C3=O)[C@H]2C1=O	x	i	x	0.6	x	-2.7	x	x	x
Cc1ccc2nc(N3CCOCC3)c(C=O)c(=O)n2c1	-11%	i	-94	-4.4	0.7	1.8	0	5	-1.3
Cc1ccc(/C=C/C(=O)O)cc1S(=O)(=O)N(C)CCO	x	i	-3	-0.5	0.71	1.7	x	x	x
Cc1ccc(NC(=O)CCn2c(=O)oc3ccccc32)cc1	14%	x	-2	x	0.69	1.0	x	x	x

Brought forward from above: three compounds; new compounds follow.
SMILES	Vif A3G	FGF22 binding	ALR inh	MLL AF4-AF9 inh	Ecoli growth	HNF4A DNA FP	Ecoli rRNA inh	Ecoli rRNA inh OD600	Ecoli rRNA inh RFP
Cc1ccc2nc(N3CCOCC3)c(C=O)c(=O)n2c1	-11%	i	-94	-4.4	0.7	1.8	0	5	-1.3
Cc1ccc(/C=C/C(=O)O)cc1S(=O)(=O)N(C)CCO	x	i	-3	-0.5	0.71	1.7	x	x	x
Cc1ccc(NC(=O)CCn2c(=O)oc3ccccc32)cc1	14%	x	-2	x	0.69	1.0	x	x	x
O=C(C[C@H]1C[C@@H]2c3cc(NC(=O)NC4CCCCC4)ccc3O[C@@H]2[C@H](CO)O1)NCC1CC1	x	i	x	-0.9	x	x	1	5	1.4
CCn1c(SCCC#N)nnc1-c1ccncc1	-2%	i	-1	-0.1	0.68	-0.2	10	10	4.0
O=C(COC(=O)C1CCCC1)Nc1cccc(Cl)c1Cl	-5%	i	0	-2.3	0.65	-2.0	-2	-8	2.5
CCOc1ccc(CN2CCN(Cc3cc4c(cc3Cl)OCO4)CC2CCO)cc1 (stereo not drawn)	-1%	i	-13	8.5	0.62	2.7	-6	-15	-1.7
O=C(NCC1OCCc2ccccc21)c1cc(COc2c(F)cccc2F)on1 (stereo not drawn)	0%	i	-22	-0.4	0.66	2.9	4	4	2.4
CCOC(=O)c1c(NC(=O)CSC2=NN3CCCC(=O)N=C3S2)sc2c1CCCCC2	-9%	i	27	-1.9	0.8	0.8	2	3	0.4
O=[N+]([O-])c1ccc(COc2ccccc2CN2CCOCC2)cc1	x	i	x	-2.6	x	4.1	0	1	-1.3
CC(=O)Nc1cccc(C(=O)OC(C)C(=O)NCc2ccc3c(c2)OCO3)c1 (stereo not drawn)	3%	i	-4	-18	0.66	-1.2	5	10	-2.4
CCOC(=O)C1=CCN(S(=O)(=O)c2ccc(C)cc2)C1c1ccc(Br)cc1 (stereo not drawn)	x	x	x	-0.4	x	1.5	-7	-8	-5.3
CCCC(C(=O)NCc1ccco1)N(C(=O)CNS(=O)(=O)c1ccccc1)c1ccc(OC)cc1 (stereo not drawn)	x	i	x	2.3	0.71	-2.3	-10	-10	1.0
COCCNC(=S)N1CCOCC1	x	i	x	5.5	0.7	-4.0	21	10	-1.9
CC(=O)OCCOc1nc(N(C)C)nc(N(C)C)n1	-4%	x	5	x	0.71	3.3	x	x	x
O=C(NC1CC1)c1cc(-c2ccccn2)nc2ccccc12	-4%	x	4	x	0.76	-0.7	x	x	x
CCOc1ccc(Cl)cc1-c1cc(C(=O)Nc2ccc(OC)cc2OC)[nH]n1	x	i	x	-2.6	x	3.0	5	10	-2.5
CC(NC(=O)Nc1ccc([N+](=O)[O-])cc1)C(c1cccs1)N1CCCC1 (stereo not drawn)	3%	i	14	6.5	0.68	2.9	4	-4	0.5
CCCNC(=O)N1[C@H](CO)[C@@H](c2ccc(-c3cccc(OC)c3)cc2)[C@@H]1C#N	x	i	x	-6.2	x	x	-16	-63	1.3
CCOC(=O)NC1(NC2CCCCC2)Oc2ccccc2O1	7.3µM*	i	8	2.9	0.69	3.5	4	11	0.4
CCOC(=O)c1cc(C#N)c(SCC(=O)OC)[nH]c1=O	-4%	i	99*	3.3	0.68	2.1	24	8	3.5
COc1ccc(NC(=O)N(C)C[C@@H]2OCCCC[C@H](C)Oc3ccc(NC(=O)CCCN(C)C)cc3C(=O)N([C@H](C)CO)C[C@H]2C)cc1	x	i	x	0.9	x	x	3	0	1.7
COc1ccc(-c2noc(Cc3cccs3)n2)cc1	70%	x	-3	x	0.71	-0.8	x	x	x
CCc1cc(C(=O)COc2ccccc2F)c(O)cc1O	8%	x	36	x	0.62	2.1	-53	-80	-18
CC1CCN(C(=O)c2cc(-c3ccco3)on2)CC1	x	i	x	-12	0.66	1.3	7	6	0.7
COc1ccc(Cl)cc1S(=O)(=O)Nc1ccncc1	14%	i	-2	-1.3	0.7	-0.2	12	-1	0.8
O=C(CCN1CCN(c2ccccc2F)CC1)Nc1cccc(F)c1	x	i	9	2.0	0.61	-0.6	-4	-5	-3.9
CC(C)c1ccc(CNc2ccc(N3CCOCC3)cc2)cc1	u	x	99*	x	0.72	-3.6	x	x	x
CN(C(=O)c1c(Cl)cnn1C)C12CC3CC(CC(C3)C1)C2	13%	x	-2	x	0.66	0.9	x	x	x
